High-throughput results: PubChem, Broad Institute
ALR H2O2 inh – inhibitors of human sulfhydryl oxidase ALR; P55789; 290,000 tested, 3.8% active; purified ALR, DTT oxidation, H2O2 HRP-luminol luminescence; inhibition, % (concentration not given with the values);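 active = mean and each replicate at 75% or more; inconclusive = only one of the two met; inactive = neither met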;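 also: stock transfer was 7.5 nL into about 7.5 µL; 0% = neutral wells and 100% = wells with inactivated enzyme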
Target sequence (P55789 whole entry, looked up): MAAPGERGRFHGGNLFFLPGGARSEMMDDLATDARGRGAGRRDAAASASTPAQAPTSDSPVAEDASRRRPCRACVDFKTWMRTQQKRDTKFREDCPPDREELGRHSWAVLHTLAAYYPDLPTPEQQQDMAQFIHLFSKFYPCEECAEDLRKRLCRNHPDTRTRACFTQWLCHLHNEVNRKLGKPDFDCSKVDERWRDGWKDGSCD
T cruzi inh – T. cruzi replication inhibition; T. cruzi beta-gal in NIH3T3, luminescence, 90 h; inhibition, % (test concentration not listed); 300,000 tested, 1.4% active; AID 1885;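 active = mean inhibition across valid replicates above about 55%, limit read from the data; inconclusive = mean below that limit but half or more replicates reach it; inactive = mean below it, under half of replicates reach it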;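 also: signal also drops with host cell toxicity which is not excluded here; 0% = plate median of DMSO wells and 100% = zero luminescence signal; higher percent means less beta-gal luminescence so fewer parasites; stock transfer was 50 nL into about 50 µL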
RanGTP-Impb inh – disruptors of Ran-importin-beta complex formation – biochemical, FRET, CFP-Ran, YFP-importin-beta, homogeneous, primary screen; 300,000 tested, 1.1% active; inhibition, % (test concentration not listed); cell-free CFP-Ran/YFP-importin-beta FRET ratio;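 active = most replicates above 15%; inconclusive = exactly half above 15%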;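 also: 0% = DMSO wells and 100% = Ran loaded with GDP instead of GTP; wells of about 40 µL received 100 nL stock; the first replicate is given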
Beta cell apopt – blocks beta cell apoptosis; 300,000 tested, 0.8% active; INS-1E cytokine-induced death, ATP luminescence, 48 h; percent of positive-control rescue, neutral wells zero; protection from apoptosis, % (no concentration beside the values);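 active = all replicates at 75% or more, or half of them and the mean; inconclusive = half reach 75% but not the mean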;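 also: 0% = cytokine-treated negative control wells and 100% = positive control rescue; higher means more ATP so stronger rescue from cytokine killing; wells of about 40 µL received 100 nL stock; the first replicate is given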
Calb FLC – affects C. albicans growth with fluconazole; C. albicans CaCi-2 (fluconazole-resistant clinical isolate) + fluconazole, Alamar Blue growth, 48 h; growth inhibition, % (concentration not given with the values); 300,000 tested, 0.57% active; AID 1979;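 active = most replicates above 75%; inconclusive = exactly half above 75%; inactive = most below 75%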;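 also: all wells also contain fluconazole at 8 µg/ml as a sub-toxic cotreatment; 0% = median of DMSO wells and 100% = median of geldanamycin control wells; wells of about 8 µL received 7.5 nL stock; the first replicate is given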
FGF22 binding – FGF22 (human) thermal shift binding | 340,000 tested, 1.5% active | calls only at 9.99 µM | recombinant FGF22 thermal shift, SYPRO orange fluorescence; percent of sucrose octasulfate shift, DMSO zero;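 active = melting point raised past a set limit in the mean and every replicate; inconclusive = no clear call; three in four hits are not shown here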
Target sequence (Q9HCT0 whole entry, looked up): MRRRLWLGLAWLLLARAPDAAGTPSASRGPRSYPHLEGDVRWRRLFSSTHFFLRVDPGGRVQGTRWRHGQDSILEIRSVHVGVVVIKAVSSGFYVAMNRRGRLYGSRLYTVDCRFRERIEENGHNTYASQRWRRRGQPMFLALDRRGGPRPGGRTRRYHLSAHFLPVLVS
MLL AF4-AF9 inh – inhibitors of human MLL-AF4/AF9 interaction; inhibition, % at 10 µM; 350,000 tested, 0.47% active; P42568; AlphaScreen, biotin-AF4 peptide binding to FLAG-AF9;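 active = every replicate reaching a set inhibition limit, whatever the replicate mean, cut at about 25% in these data; inconclusive = mean inhibition reaches that limit but some replicates miss it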;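 also: 0% = plate neutral control median and 100% = total signal loss; the record names both 10 and 1 µM as test concentration; the first replicate is given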
Target sequence (P42568 whole entry, looked up): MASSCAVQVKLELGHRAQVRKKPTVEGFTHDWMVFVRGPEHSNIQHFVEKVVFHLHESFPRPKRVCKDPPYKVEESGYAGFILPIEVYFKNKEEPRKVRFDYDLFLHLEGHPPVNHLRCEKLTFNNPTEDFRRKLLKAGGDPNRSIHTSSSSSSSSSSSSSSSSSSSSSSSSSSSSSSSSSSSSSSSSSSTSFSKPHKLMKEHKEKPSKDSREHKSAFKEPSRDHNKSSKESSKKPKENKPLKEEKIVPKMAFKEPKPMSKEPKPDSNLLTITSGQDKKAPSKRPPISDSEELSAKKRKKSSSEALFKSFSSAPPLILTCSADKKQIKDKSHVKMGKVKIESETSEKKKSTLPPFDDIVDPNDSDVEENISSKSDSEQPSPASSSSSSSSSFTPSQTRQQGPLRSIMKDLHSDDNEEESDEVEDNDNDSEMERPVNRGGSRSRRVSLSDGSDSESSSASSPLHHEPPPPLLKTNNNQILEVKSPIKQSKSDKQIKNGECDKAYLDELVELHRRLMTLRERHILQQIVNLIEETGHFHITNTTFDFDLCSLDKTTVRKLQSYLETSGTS
rRNA inh HTS – inhibits bacterial ribosomal RNA function over humanized ribosomes. E. coli WT GFP vs humanized-ribosome RFP mutants, fluorescence, 24 h; active compounds read low; DMSO median 0, no signal -100. GFP signal change (wild-type ribosome), % (concentration not given with the values). 350,000 tested, 1.6% active;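 active = significant combined selectivity score with lowered wild-type GFP, culture density cut under 30%, mutant RFP and density less affected; inactive = any of these conditions unmet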; also: one replicate is shown; some compounds called inactive have numbers as strong as hits
rRNA inh HTS OD600 – further read-out of rRNA inh HTS, marked with its call; OD600 change, %; measured here: OD600 growth;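 optical density of the mix in the first replicate; 0 = DMSO median and -100 = no signal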
rRNA inh HTS RFP – recorded beside rRNA inh HTS, whose call it bears; RFP signal change, %; measured here: RFP humanized mutant strains;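 first replicate; 0 = DMSO median and -100 = no signal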
* hit, by the source's call; i = inactive; ? = inconclusive; nt = not tested or not shown; & = joins results of further samples. A portion of the library, so the mix of outcomes need not match the whole.

structure	ALR H2O2 inh	T cruzi inh	RanGTP-Impb inh	Beta cell apopt	Calb FLC	FGF22 binding	MLL AF4-AF9 inh	rRNA inh HTS	rRNA inh HTS OD600	rRNA inh HTS RFP
CCOc1ccc(S(=O)(=O)Nc2ccccc2C(=O)N/N=C/c2c(OC)ccc3ccccc23)cc1	-14	4	2.0	-1	12	nt	nt	nt	nt	nt
CCOc1ccc(NC(=O)CN(c2cccc(C(F)(F)F)c2)S(C)(=O)=O)cc1	1	-6	0.7	9	-11	nt	nt	nt	nt	nt
CCCC(C(=O)NNC(=O)c1ccncc1)c1ccccc1 (stereo not drawn)	10	nt	nt	3	nt	i	-3.3	8	11	-2.1
CC(=O)c1ccc(OCc2cc(C(=O)N3CCN(C4CCCC4)C(=O)C3)no2)cc1	-2	-1	0.8	-4	-3	i	0.1	3	0	0.0
O=C(Nc1ncn[nH]1)c1ccc(Cl)c(S(=O)(=O)N2CCCCCC2)c1	-2	-12	3.7	-8	-22	nt	nt	nt	nt	nt
O=C(Nc1ccccc1)C1=C[C@H](C2CC2)C[C@H](OCCCCO)O1	26	-11	2.8	4	2	i	-17&-2.2	3	14	0.5
N#CC1=C(SCC(=O)Nc2cccc3cccnc23)NC(=O)C(C#N)C12CCCCC2 (stereo not drawn)	0	1	1.7	-2	33	i	1.4	-35	-41	-5.5
Cc1c(CCC(=O)NCC(=O)NCC(=O)O)c(=O)oc2cc3oc4c(c3cc12)CCCC4	nt	-11	3.3	-4	-13	i	1.0	-1	3	2.1
COc1ccc(NC(=O)c2nc[nH]c2C(=O)NCC(=O)OC(C)(C)C)cc1	6	-8	4.5	-11	10	i	-7.3	-28	-50	13
CCOC(=O)C1CCCN(C(=O)c2cc3ccc(OC)cc3[nH]2)C1 (stereo not drawn)	-23	-8	-4.0	1	-5	i	-2.0	-6	-4	-0.6
CC(=O)Nc1nnc(SCC(=O)Nc2nc(C)cs2)s1	-4	-7	2.3	-7	4	i	-0.7	13	18	2.9
CS(=O)(=O)Nc1ccc(C2=NN(C(=O)c3ccccc3)C(c3cccs3)C2)cc1 (stereo not drawn)	-7	5	-3.1	-1	-8	i	0.5	-27	-24	3.7
CC1(C)CC(=O)/C(=N/Nc2ccc(Cl)cc2)CO1	nt	1	0.9	1	-27	nt	-3.3	1	-4	-6.3
COc1cc(C2c3c(-c4ccccc4O)n[nH]c3C(=O)N2Cc2ccco2)cc(OC)c1OC (stereo not drawn)	nt	5	-5.8	3	-7	i	-0.8	-17	-22	0.7
O=C(CCCl)N1CCN(c2nc(-c3ccccc3)cs2)CC1	6	-2	3.3	nt	1	i	-5.5	-10	-11	2.5
COCCNC(=O)c1ccc2c(c1)ncn2-c1cccc(C)c1	-26	-10	-1.9	-2	9	i	-4.0	0	-4	1.0
CCOc1ccc(S(=O)(=O)/N=C(/c2ccccc2)N(C)C)cc1	nt	-15	1.9	-1	12	i	-0.2	10	4	2.3
O=C(/C=C/c1cccc2ccccc12)c1ccncc1	-36	32	-2.5	32	-10	nt	nt	nt	nt	nt
CCOc1ccc(NC(=O)CN2CCN(CC(=O)Nc3ccccc3OC)CC2)cc1	-5	6	3.6	nt	-2	i	-7.3	-1	-4	3.7
COCCNC(=O)c1nn2cccnc2c1Cl	-3	-22	-1.5	-2	-9	nt	nt	nt	nt	nt
Cc1ccccc1NC(=O)c1ccc2nc(N3CCOCC3)sc2c1	nt	-8	1.1	2	-3	i	-6.8	15	9	0.7
O=C(Nc1ccc(Cl)cc1F)C1CCN(S(=O)(=O)c2cccnc2)CC1	-21	11	?	-3	1	nt	nt	nt	nt	nt
Cc1cc(NC(=O)CSc2nnc(-c3ccncc3)n2-c2ccc(F)cc2)no1	-8	-17	-1.3	-2	-12	i	-1.8	2	2	0.4
Cc1ccc2c(CC(=O)Nc3sccc3C(N)=O)coc2c1	85*	-9	-1.3	-5	8	nt	nt	nt	nt	nt
CCCNC(=O)c1ccc(CNc2c(N3CCC(C(=O)OCC)CC3)c(=O)c2=O)cc1	-7	1	-1.7	9	1	nt	nt	nt	nt	nt
Cc1nc([N+](=O)[O-])cn1CC(=O)NCCCO	nt	-10	-2.7	3	-7	nt	nt	nt	nt	nt
COC(=O)Cc1c(O)ccn(C2CC2)c1=O	-14	0	-1.7	0	8	i	-3.9	14	12	-5.0
O=C(CNC(=O)[C@@H]1Cc2ccccc2CN1)Nc1ccc2c(c1)OCO2	-19	6	3.8	4	-1	i	1.4	10	14	-1.8
COc1ccc(-c2cc3ncc(C(C)=O)c(C)n3n2)cc1	-6	-2	0.4	-1	-3	i	-1.6	16	12	-1.4
CO/N=C(/CNC(=O)c1ccc(F)cc1)c1ccc(Cl)cc1	4	-4	-0.9	0	-7	nt	nt	nt	nt	nt
Cc1ccccc1/C(N)=N/OC(=O)c1cccs1	nt	-1	0.6	-8	5	nt	nt	nt	nt	nt
CSc1nn2c(C)c(C)c(C)nc2c1C#N	-7	1	-1.1	-5	-8	i	-0.5	12	18	3.2
COc1ccccc1-c1cc(-c2ccc(C)cc2)nc(SCc2nnc(-c3ccccc3)o2)c1C#N	-14	42	-3.1	-6	2	nt	nt	nt	nt	nt
O=S(=O)(c1ccccc1)N1CCC(n2nnc3cc(F)ccc32)CC1	-17	-3	-2.8	-7	2	i	-33	12	6	2.6
Oc1ccccc1/C=N/N1CCN(c2ccccn2)CC1	19	-12	7.6	4	3	i	2.7	1	1	-4.6
CC(=O)Nc1ccc(CN2CCN(c3cccc(C(F)(F)F)c3)CC2)cc1	-5	-29	4.1	7	-30	nt	nt	nt	nt	nt
Cc1ccc(S(=O)(=O)N(C)CC(=O)OCC(=O)NCCc2ccc(S(N)(=O)=O)cc2)cc1	2	nt	nt	-11	nt	i	1.6	8	1	0.6
C=CC[C@@H](Cc1ccc(F)cc1)C(=O)OC[C@@H]1CCCN1C(=O)[C@H](CC=C)CC(=O)N(CCO)Cc1ccccc1	-11	nt	nt	2	nt	i	-0.4	nt	nt	nt
Cc1cc(C)nc(N2CCCC(C(=O)NCCC3=CCCCC3)C2)n1 (stereo not drawn)	2	1	0.9	0	-7	nt	nt	nt	nt	nt
Cc1ccccc1CN1CCN(Cc2ccccc2C(F)(F)F)CC1	-52	-9	0.0	1	-22	nt	nt	nt	nt	nt
O=C(Cn1nnc(-c2ccccc2)n1)Nc1ccc2c(c1)OCO2	-15	-4	1.2	-3	-14	nt	nt	nt	nt	nt
CC(=O)c1cccc(NC(=S)Nc2ccc(F)cc2)c1	3	2	-3.3	0	-3	i	0.4	-2	4	2.3
N#CC1=C(N)Oc2cc(O)ccc2C1c1ccncc1 (stereo not drawn)	46	nt	-28	-1	-2	nt	nt	nt	nt	nt
Clc1ccc(/C=C/c2ncc3ccccn23)cc1	99*	-6	24*	7	-1	i	1.3	2	-5	-0.3
CCOC(=O)c1nc(NCc2cccc(OC)c2)c2ccccc2n1	14	10	3.5	-1	0	i	-4.3	-12	-18	0.4
Cn1c(SCC(=O)N2CCN(C(=O)c3ccco3)CC2)nnc1-c1ccc(NS(C)(=O)=O)cc1	-8	-10	2.8	-1	?	i	-1.7	11	0	-6.7
Fc1cccc(Cc2noc(CN3CCCCC3CCc3ccccn3)n2)c1 (stereo not drawn)	-3	8	-1.1	-2	?	i	2.7	-25*	-11*	-0.5*
COc1ccccc1-c1nnc(NC(=O)C(C)SC2=NCCS2)s1 (stereo not drawn)	8	0	1.9	-4	-2	i	-6.5	-2	6	6.4
CN(C)C1=NCCN1CCc1ccc(F)cc1	17	nt	nt	0	nt	i	4.0	15	19	-4.8
O=C(COC(=O)c1ccc(S(=O)(=O)N2CCCC2)cc1)Nc1ccc(F)cc1F	16	-18	3.1	1	-1	i	-1.5	11	6	-2.5
CCC(=O)NC(C)C(c1cccs1)N1CCN(Cc2ccccc2)CC1 (stereo not drawn)	-13	0	-2.5	-2	-3	i	-7.5	2	7	-1.2
CCOC(=O)c1csc(N)c1-c1ccc([N+](=O)[O-])cc1	10	2	?	-1	3	i	-0.7	nt	nt	nt
COc1ccc2ccccc2c1/C=N/NC(=O)c1ccc([N+](=O)[O-])cc1	-7	-2	-2.8	-3	-5	i	-5.7	18	8	1.0
COc1ccc(NS(=O)(=O)c2ccc(C)c(C(=O)N(C)CCc3ccc(OC)c(OC)c3)c2)cc1	-2	6	-3.0	-5	1	i	5.2	-2	-6	1.6
COc1ccc(CC2(CO)CCN(CC3=Cc4cc(Cl)ccc4OC3)CC2)cc1	4	66*	-3.1	115*	10	i	7.8	-36	-47	-6.7
O=C(CCCc1ccccc1)c1ccccc1	14	-9	2.0	0	-2	i	-13	6	10	-0.7
COc1ccc(-c2nnc(COc3ccc4ccccc4c3)o2)cc1OC	-4	2	1.4	-7	13	nt	nt	nt	nt	nt
CCO[C@@H]1OC(C(=O)N2CCN(Cc3ccccc3)CC2)=C[C@H](c2cn(C(C)=O)c3ccccc23)[C@H]1CCCO	-1	43	0.7	0	6	i	-0.1	-4	0	4.2
C/C(=N\NC(=S)NCc1ccccc1)c1ccc(Br)cc1	-6	16	1.5	1	6	nt	1.9	-15	-32	17
CCCN(CC(=O)Nc1ccccc1OC)C(=O)c1cnc(Cl)c(Cl)c1	-1	5	-0.9	2	10	i	-1.1	3	1	0.1
CCCCSc1nc(C)c(C(C)=O)cc1C#N	-3	7	-2.8	2	-4	nt	nt	nt	nt	nt
